Bioassay records from PubChem BioAssay.
HCMV UL50-53 inh: inhibitors of HCMV UL50-UL53 interaction, biochemical, HTRF; normalized percent inhibition; inhibition, % (test concentration not listed); hit rate 0.15% among 190,000; AID 1918969, 2023;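 active = both replicates at 50% or more, plus weaker picks with an unusually low signal ratio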;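 note: stock transfer was 100 nL into about 20 µL; 0% = negative control wells and 100% = wells with untagged competitor protein; inactives centre near -12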
Sa growth inh: S. aureus growth inhibition at 42 and 30 °C, primary screen, LtaS inhibitor project, RN4220, two temperatures | OD600, 20 h, 42 °C; stronger effect = lower value | hit rate 0.53% among 170,000 | relative growth, % (test concentration not listed) | AID 720641, 2013;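 active = growth at 42 °C up to 50% and 20 or more points under that at 30 °C, or under 10% at both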;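 note: 300 nL library stock went into each well; scaled to the means of positive and negative controls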
GIV-Gai inh: inhibitors of GIV peptide binding to Galpha-i3, primary screen, biochemical, fluorescence polarization, FITC-GIV GBA peptide, rat Galphai3. Guanine nucleotide-binding protein G(i) subunit alpha-3 (Rattus norvegicus), P08753. 90 min; stronger effect = lower value; scaled: aluminum fluoride 0%, vehicle 100%. percent of control (FP), % (no concentration beside the values). hit rate 0.42% among 210,000. AID 1224905, 2016;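 active = replicate mean at 85% of control or lower, very high polarization wells dropped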;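 note: wells of about 15 µL received 100 nL stock; the first replicate is given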
Target sequence (P08753 whole entry, looked up): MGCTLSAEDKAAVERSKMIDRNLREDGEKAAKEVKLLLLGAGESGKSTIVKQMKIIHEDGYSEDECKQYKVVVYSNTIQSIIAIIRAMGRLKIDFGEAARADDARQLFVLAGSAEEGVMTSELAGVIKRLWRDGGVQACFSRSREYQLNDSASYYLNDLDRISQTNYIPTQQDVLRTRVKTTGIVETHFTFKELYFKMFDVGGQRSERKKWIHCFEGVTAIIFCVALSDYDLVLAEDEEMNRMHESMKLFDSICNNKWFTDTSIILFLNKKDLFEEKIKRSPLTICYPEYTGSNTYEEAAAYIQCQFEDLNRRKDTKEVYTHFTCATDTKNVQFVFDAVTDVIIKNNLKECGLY
Sa growth inh second temp: second read-out of Sa growth inh, no call of its own (marks repeat the call); relative growth, %; measured here: growth at 30 °C;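 optical density after 20 h as mean of two plates; 100% = untreated growth and lower means inhibition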
Active calls of the source: *; & = joins results of further samples.

O=C1CN(c2ncnc3sc(-c4ccccc4)cc23)CCN1 was read as HCMV UL50-53 inh -41, Sa growth inh 74 and Sa growth inh second temp 94.
CCOc1ccc(-n2c(C)nc3cc(C(=O)NCCC4=CCCCC4)ccc32)cc1 was read as Sa growth inh 121, GIV-Gai inh 104 and Sa growth inh second temp 92.
`CCOC(=O)c1sc2nc(C)nc(SCc3nnc(-c4ccc(Cl)cc4)o3)c2c1C` gave HCMV UL50-53 inh -21, Sa growth inh 75 and Sa growth inh second temp 89.
Screening Cc1cccc(-c2nnc(N(C(=O)C3CCC3)C(C)C)s2)c1 returned HCMV UL50-53 inh 20, Sa growth inh 94, GIV-Gai inh 106 and Sa growth inh second temp 103.
`CCN(CC)c1ccc(-n2c(C)c(C(=O)O)c3cc(OC)c4ccccc4c32)cc1` gave HCMV UL50-53 inh 8 and GIV-Gai inh 101.
Screening COc1cccc(-n2c(-c3cccc(S(=O)(=O)N(C)C)c3)n[nH]c2=S)c1 returned HCMV UL50-53 inh 10, Sa growth inh 108 and Sa growth inh second temp 92.
Screening Nc1cc(C(F)(F)F)ccc1OCc1ccccc1 returned HCMV UL50-53 inh 1, Sa growth inh 83 and Sa growth inh second temp 94.
Screening CCOC(=O)CNc1n[nH]c(N)n1 returned HCMV UL50-53 inh 1, Sa growth inh 113 and Sa growth inh second temp 86.
O=C(Cn1ccn(-c2ccc(F)cc2)c(=O)c1=O)Nc1ccc(F)cc1 was read as HCMV UL50-53 inh -26, Sa growth inh 122, GIV-Gai inh 97 and Sa growth inh second temp 91.
For N#Cc1ccccc1COc1ccccc1C(N)=O the results were HCMV UL50-53 inh -26, Sa growth inh 82 and Sa growth inh second temp 93.
`O=C(O)CCCN1Cc2ccccc2C1` gave HCMV UL50-53 inh 5, Sa growth inh 94, GIV-Gai inh 102 and Sa growth inh second temp 87.
CC(C)N(C(=O)CSc1nnc2sc3ccccc3n12)C(C)C was read as HCMV UL50-53 inh -32, Sa growth inh 99 and Sa growth inh second temp 96.
For COc1ccccc1CNC(=O)CCCc1nnc2n(CC(C)C)c(=O)c3sccc3n12 the results were Sa growth inh 107, GIV-Gai inh 109 and Sa growth inh second temp 102.
Screening COc1ccc(C(O)c2nccn2C)cc1 (stereo unspecified) returned HCMV UL50-53 inh 3, Sa growth inh 116, GIV-Gai inh 104 and Sa growth inh second temp 113.
Nc1cc(-c2ccccc2)nc2ccccc12 was read as HCMV UL50-53 inh -41, Sa growth inh 86 and Sa growth inh second temp 83.
Screening Cc1nnc(NC(=O)CSc2nccn2-c2cccc(Cl)c2)s1 returned Sa growth inh 93, GIV-Gai inh 102 and Sa growth inh second temp 86.
`COc1ccc(CSc2nc3ccncc3n2Cc2cccc(OC)c2)cc1` gave HCMV UL50-53 inh -26 and GIV-Gai inh 106.
Screening COc1ccc(C)c2sc(NC(=O)c3ccc(S(=O)(=O)N(C)C)cc3)nc12 returned Sa growth inh 89, GIV-Gai inh 101 and Sa growth inh second temp 86.
`CCOC(=O)CSc1nc(C#N)c(SCC(=O)OCC)s1` gave HCMV UL50-53 inh -19, Sa growth inh 109, GIV-Gai inh 105 and Sa growth inh second temp 93.
CC1=C(C)C2C(=O)N=C(c3ccc(-c4ccc(C(=O)O)cc4)o3)N=C2S1 (stereo unspecified) was read as HCMV UL50-53 inh -1, Sa growth inh 82 and Sa growth inh second temp 86.
For O=C(Nc1ccc2nn(-c3ccccc3)nc2c1)C(F)(F)F the results were HCMV UL50-53 inh -13, Sa growth inh 105 and Sa growth inh second temp 85.
c1ccc(-c2nnc(-c3ccncc3)o2)cc1 was read as HCMV UL50-53 inh -6&-14, Sa growth inh 102, GIV-Gai inh 105&102 and Sa growth inh second temp 86.
`COc1ccc(CCNC(=O)CCCn2nc(-c3ccccc3)c3cc(Cl)ccc32)cc1OC` gave HCMV UL50-53 inh 2 and GIV-Gai inh 96.
Screening CCCCc1nc2ccccc2c(C(=O)O)c1C returned HCMV UL50-53 inh -12, Sa growth inh 107, GIV-Gai inh 106 and Sa growth inh second temp 98.
For CCC(=O)NC1CC(=O)N(c2ccc(F)cc2)C1 (stereo unspecified) the results were HCMV UL50-53 inh -33, Sa growth inh 100, GIV-Gai inh 98 and Sa growth inh second temp 87.
CCc1cccc2c3c([nH]c12)C(CC)(CC(=O)O)OCC3 (stereo unspecified) was read as HCMV UL50-53 inh -1&12&-10&-18, Sa growth inh 110, GIV-Gai inh 107 and Sa growth inh second temp 102.
`COc1ccc(C(=O)NN2C(=O)C3C(c4ccccc4)C=CC(c4ccccc4)C3C2=O)cc1` (stereo unspecified) gave HCMV UL50-53 inh -23 and GIV-Gai inh 101.
Screening Cc1ccc2nc(NC(=O)c3cccs3)sc2c1 returned HCMV UL50-53 inh 1&2, Sa growth inh 110&124 and Sa growth inh second temp 92&94.
CCCNC(=O)CN1C(=O)COc2ccccc21 was read as Sa growth inh 85, GIV-Gai inh 96 and Sa growth inh second temp 106.
CCOC(=O)c1cc(-c2cc3ccccc3o2)n[nH]1 was read as HCMV UL50-53 inh -7, Sa growth inh 100 and Sa growth inh second temp 99.
Screening Cc1ccccc1CNC(=O)C1CCN(c2nnc(C)c3c(C)n(-c4ccccc4)nc23)CC1 returned Sa growth inh 103, GIV-Gai inh 105 and Sa growth inh second temp 94.
`Cc1cc(C)c(NC(=O)CN2C(=O)CCc3cc(S(=O)(=O)N4CCCC4)ccc32)c(C)c1` gave HCMV UL50-53 inh -26 and GIV-Gai inh 104.
O=C(Nc1sc2c(c1C(=O)NCC1CCCO1)CCC2)c1cc(-c2ccc3c(c2)OCCO3)on1 (stereo unspecified) was read as HCMV UL50-53 inh -10 and GIV-Gai inh 96.
COc1ccc(C(=O)Nn2c(-c3ccc(F)cc3)nc3ccccc3c2=O)cc1Br was read as HCMV UL50-53 inh -8 and GIV-Gai inh 104.
Screening CC1CCCC(C)N1C(=O)COC(=O)c1ccc(O)cc1 (stereo unspecified) returned HCMV UL50-53 inh -26, Sa growth inh 107 and Sa growth inh second temp 90.
`CC1CCCC(C)N1C(=O)c1cc(=O)c2ccccc2o1` (stereo unspecified) gave HCMV UL50-53 inh -1, Sa growth inh 76 and Sa growth inh second temp 95.
`Cc1ccc(C)c(N2CCN(C(=O)c3cc4c(=O)n(Cc5ccco5)ccc4nc3C)CC2)c1` gave Sa growth inh 74, GIV-Gai inh 97 and Sa growth inh second temp 77.
`CCOc1ccc(N2CC(NC(=O)c3ccco3)CC2=O)cc1` (stereo unspecified) gave Sa growth inh 113, GIV-Gai inh 97 and Sa growth inh second temp 86.
Screening CCC(C(=O)NCc1ccccc1Cl)n1nc(C)c2sc3ccccc3c2c1=O (stereo unspecified) returned HCMV UL50-53 inh 1, Sa growth inh 92, GIV-Gai inh 109 and Sa growth inh second temp 83.
Cc1c(-c2ccccc2)oc2c(C(=O)O)cccc2c1=O was read as HCMV UL50-53 inh 17, Sa growth inh 96 and Sa growth inh second temp 100.
`CCc1cccc(NC(=O)Cn2c(=O)n(-c3cccc(Cl)c3)c(=O)c3c2c2cc(C)ccc2n3C)c1` gave HCMV UL50-53 inh 6, Sa growth inh 90, GIV-Gai inh 99 and Sa growth inh second temp 86.
CC1CCCC(NC(=O)COC(=O)c2ccccc2O)C1C (stereo unspecified) was read as HCMV UL50-53 inh -22, Sa growth inh 98 and Sa growth inh second temp 93.
For CCCOc1ccc(CN(C(=O)c2nc(SC(C)C)ncc2Cl)C2CCS(=O)(=O)C2)cc1 (stereo unspecified) the results were HCMV UL50-53 inh -38, Sa growth inh 95, GIV-Gai inh 96 and Sa growth inh second temp 81.
O=C(O)CCSc1ncnc2nc[nH]c12 was read as HCMV UL50-53 inh -10 and GIV-Gai inh 99.
`O=C(Nc1cccnc1)C12CC3CC(CC(C3)C1)C2` gave HCMV UL50-53 inh -7, Sa growth inh 96, GIV-Gai inh 97 and Sa growth inh second temp 91.
For NNC(=O)COc1ccccc1F the results were HCMV UL50-53 inh -15, Sa growth inh 107 and Sa growth inh second temp 89.
For NCCNC(=O)c1ccncc1 the results were HCMV UL50-53 inh -3, Sa growth inh 103, GIV-Gai inh 105 and Sa growth inh second temp 87.
CC(=O)Nc1cccc(SC(F)(F)F)c1 was read as HCMV UL50-53 inh 9, Sa growth inh 100, GIV-Gai inh 104 and Sa growth inh second temp 94.
Screening COc1cc(C2c3c(oc4ccc(F)cc4c3=O)C(=O)N2CC2CCCO2)ccc1O (stereo unspecified) returned HCMV UL50-53 inh -4, Sa growth inh 99, GIV-Gai inh 104 and Sa growth inh second temp 92.
O=C(CN1CC(=O)Nc2ccccc21)Nc1ccc(N2CCCCC2)cc1 was read as HCMV UL50-53 inh -6, Sa growth inh 97 and Sa growth inh second temp 91.
NS(=O)(=O)c1ccc(NC(=O)c2cc(-c3ccc4c(c3)OCO4)nc3ccccc23)cc1 was read as HCMV UL50-53 inh -5, Sa growth inh 66, GIV-Gai inh 104 and Sa growth inh second temp 60.
Screening Cc1nc(SCC(=O)c2ccc3c(c2)OCCO3)c2c3c(sc2n1)CCC3 returned HCMV UL50-53 inh 2 and GIV-Gai inh 103.
For CCOc1ccc(NCc2cccn2-c2nnc(N3CCC(C(=O)NCC(C)c4ccccc4)CC3)s2)cc1 (stereo unspecified) the results were HCMV UL50-53 inh -8, Sa growth inh 125, GIV-Gai inh 101 and Sa growth inh second temp 100.
`COc1ccc(CNC(=O)c2ccc(CNS(=O)(=O)c3ccc(F)cc3)cc2)cc1` gave Sa growth inh 123, GIV-Gai inh 101 and Sa growth inh second temp 96.
O=C(O)c1nnn(Cc2cccc(Cl)c2)c1C(=O)O was read as HCMV UL50-53 inh -18 and GIV-Gai inh 102.
Screening CCC(C)NC(=O)CSc1cc(C)nc2c(-c3ccccc3OC)c(C)nn12 (stereo unspecified) returned HCMV UL50-53 inh 8, Sa growth inh 74, GIV-Gai inh 103&103 and Sa growth inh second temp 76.
CC(C)CC(NC(=O)c1ccccc1Cl)C(=O)O (stereo unspecified) was read as HCMV UL50-53 inh -3, Sa growth inh 96, GIV-Gai inh 95 and Sa growth inh second temp 91.
For Nc1cccc(C2OCCCO2)c1 the results were HCMV UL50-53 inh -5, Sa growth inh 100 and Sa growth inh second temp 91.
Screening Nn1c(SCC(=O)N(C2CCCC2)C2CCS(=O)(=O)C2)nnc1C(F)(F)F (stereo unspecified) returned HCMV UL50-53 inh -22, Sa growth inh 80 and Sa growth inh second temp 86.
CCOC(=O)CNC(=O)N1CCN(c2ccc(=O)n(-c3ccc(F)cc3)n2)CC1 was read as HCMV UL50-53 inh -45 and GIV-Gai inh 104.
N#CCn1c(CN2CCN(c3cccc(C(F)(F)F)c3)CC2)nc2ccccc2c1=O was read as HCMV UL50-53 inh -4, Sa growth inh 86 and Sa growth inh second temp 92.
Screening CCCN1C(=O)c2c(NC(C)=O)c3cc(OC)ccc3n2CC1(C)C(=O)NC1CCCC1 (stereo unspecified) returned HCMV UL50-53 inh 35 and GIV-Gai inh 99.
Cc1ccccc1NC(=O)CSc1nnc(COc2ccc(Cl)cc2)o1 was read as HCMV UL50-53 inh -4, Sa growth inh 95, GIV-Gai inh 101 and Sa growth inh second temp 95.
For Cc1c(C(=O)N(C)C)sc2c1c(=O)n(-c1ccc(Cl)c(Cl)c1)c(=O)n2Cc1ccc(F)cc1 the results were Sa growth inh 117, GIV-Gai inh 102 and Sa growth inh second temp 77.
For O=C(NC1CCCC1)c1ccc2c(c1)N(Cc1ccc(F)cc1)C(=O)c1ccccc1S2 the results were Sa growth inh 87, GIV-Gai inh 104 and Sa growth inh second temp 107.
`Cc1ncc(NS(=O)(=O)c2ccc(NC(=O)NC3CCCCC3)cc2)c(C)n1` gave Sa growth inh 99, GIV-Gai inh 101 and Sa growth inh second temp 95.
CCc1nc2ccccc2c(NC(=O)CN2CCCCC2)c1C was read as HCMV UL50-53 inh -12, Sa growth inh 95, GIV-Gai inh 105 and Sa growth inh second temp 84.

By substructure: the entries above containing a thiophene ring, fused or not.
O=C1CN(c2ncnc3sc(-c4ccccc4)cc23)CCN1 was read as HCMV UL50-53 inh -41, Sa growth inh 74 and Sa growth inh second temp 94.
`CCOC(=O)c1sc2nc(C)nc(SCc3nnc(-c4ccc(Cl)cc4)o3)c2c1C` gave HCMV UL50-53 inh -21, Sa growth inh 75 and Sa growth inh second temp 89.
For COc1ccccc1CNC(=O)CCCc1nnc2n(CC(C)C)c(=O)c3sccc3n12 the results were Sa growth inh 107, GIV-Gai inh 109 and Sa growth inh second temp 102.
Screening Cc1ccc2nc(NC(=O)c3cccs3)sc2c1 returned HCMV UL50-53 inh 1&2, Sa growth inh 110&124 and Sa growth inh second temp 92&94.
O=C(Nc1sc2c(c1C(=O)NCC1CCCO1)CCC2)c1cc(-c2ccc3c(c2)OCCO3)on1 (stereo unspecified) was read as HCMV UL50-53 inh -10 and GIV-Gai inh 96.
Screening CCC(C(=O)NCc1ccccc1Cl)n1nc(C)c2sc3ccccc3c2c1=O (stereo unspecified) returned HCMV UL50-53 inh 1, Sa growth inh 92, GIV-Gai inh 109 and Sa growth inh second temp 83.
Screening Cc1nc(SCC(=O)c2ccc3c(c2)OCCO3)c2c3c(sc2n1)CCC3 returned HCMV UL50-53 inh 2 and GIV-Gai inh 103.
For Cc1c(C(=O)N(C)C)sc2c1c(=O)n(-c1ccc(Cl)c(Cl)c1)c(=O)n2Cc1ccc(F)cc1 the results were Sa growth inh 117, GIV-Gai inh 102 and Sa growth inh second temp 77.
